miR-21 reporter: qHTS Assay for Modulators of miRNAs and/orActivators of miR-21. AID 2288, 2010. HeLa miR-21 FLuc reporter, luciferase, 48 h. 340,000 tested, under 10 active. Potency, µM (doses to about 38.3 µM), for the others: top-dose reporter change, positive = more light; active = well fitted rising curve with a large enough effect; inconclusive = small, poorly fitted or top-dose-only effect; inactive = no such curve, though single readings can be large or run the other way;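 further: % of control where 0% means no effect; miR-21 action dims this reporter so a rising signal means less miR-21 action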
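Using DMEM plus 10% FBS, HeLa miR-21-FLuc cells are incubated with test compounds (final up to about 40uM) for 48 hours; firefly luciferase signal is then imaged following reagent-mediated lysis.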
Rango dissoc inh: qHTS Assay for Inhibitors of RanGTP induced Rango (Ran-regulated importin-beta cargo) - Importin beta complex dissociation | Biochemical FRET Rango-importin beta, RanGTP-induced dissociation | Potency, µM (highest dose often 46.1 µM), for the others: top-dose activity change, negative = inhibition | 340,000 compounds, 0.071% hits | AID 540253, 2011; active means falling FRET ratio curve, often poorly fitted, with flat reads before Ran was added; inconclusive means other falling curves, or compound fluorescence or quenching; inactive means flat or rising ratio curve;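 further: potency means the concentration at half of the fitted maximal effect; % of control where 0% means no effect; nearly all actives have a fitted effect of over 45% in size; -100% = wells without RanGTP and RCC1; the record marks most hits as doubtful in a second field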
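FRET read at 45 min, room temperature: inhibitors block the CFP/YFP signal rise when RanGTP (0.6 uM Ran, 2 mM GTP, 0.2 uM RCC1) frees Rango (0.1 uM) from importin beta (0.25 uM). Pre-read after 5 min compound exposure flags interference.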
Rango complex inh: qHTS Assay for Inhibitors of Rango (Ran-regulated importin-beta cargo) - Importin beta complex formation; AID 540263, 2011; Importin subunit beta-1 (Homo sapiens), Q14974; Potency, µM (titrated, usually from 92.2 µM), for the others: top-dose inhibition of complex formation; Rango CFP/YFP FRET sensor + importin beta, 45 min; 340,000 compounds, 0.031% hits; active = rising FRET ratio curve, often small or poorly fitted; inconclusive = mostly compound fluorescence or quenching in the first reads; inactive = flat curves in all reads;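 further: potency means the concentration at half of the fitted maximal effect; 0% = DMSO wells and 100% = buffer wells lacking importin beta; nearly all actives have a fitted effect of over 15% in size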
Target sequence (Q14974 whole entry, looked up): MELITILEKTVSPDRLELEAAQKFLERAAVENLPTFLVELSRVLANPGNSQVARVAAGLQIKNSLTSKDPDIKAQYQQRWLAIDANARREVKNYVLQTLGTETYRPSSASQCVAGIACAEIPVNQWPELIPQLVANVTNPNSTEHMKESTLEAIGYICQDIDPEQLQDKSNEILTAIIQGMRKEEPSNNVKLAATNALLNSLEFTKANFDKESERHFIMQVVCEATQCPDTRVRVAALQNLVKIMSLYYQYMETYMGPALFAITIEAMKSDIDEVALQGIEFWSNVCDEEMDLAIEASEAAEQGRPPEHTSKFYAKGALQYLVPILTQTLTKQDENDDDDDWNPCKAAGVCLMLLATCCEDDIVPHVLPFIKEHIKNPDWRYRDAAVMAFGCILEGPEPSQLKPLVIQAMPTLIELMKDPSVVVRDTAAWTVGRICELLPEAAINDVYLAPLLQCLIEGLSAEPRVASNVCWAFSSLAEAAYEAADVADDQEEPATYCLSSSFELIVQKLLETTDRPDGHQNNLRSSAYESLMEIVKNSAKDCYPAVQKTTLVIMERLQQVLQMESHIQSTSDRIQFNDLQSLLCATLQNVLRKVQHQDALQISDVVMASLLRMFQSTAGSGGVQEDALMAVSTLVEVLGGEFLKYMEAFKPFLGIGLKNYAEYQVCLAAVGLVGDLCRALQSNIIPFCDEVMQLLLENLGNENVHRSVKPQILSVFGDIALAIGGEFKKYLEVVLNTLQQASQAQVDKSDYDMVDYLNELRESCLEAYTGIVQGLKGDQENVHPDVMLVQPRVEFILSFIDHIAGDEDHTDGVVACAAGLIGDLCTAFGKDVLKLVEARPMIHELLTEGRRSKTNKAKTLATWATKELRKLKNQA
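FRET biosensor Rango (snurportin 1 IBB between N-terminal EYFP and C-terminal Cerulean), 50 nM in PBS/1 mM DTT/0.02% Tween-20/0.1% BSA, preincubated 5 min RT with compound; 0.125 microM importin beta added, 45 min RT, CFP/YFP FRET ratio read.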
GLA inh pH 4.5: qHTS Assay for Inhibitors of Human alpha-Galactosidase at pH 4.5 | AID 1467, 2008 | 230,000 tested, under 10 active | Alpha-galactosidase A (Homo sapiens), P06280 | activity change, negative = inhibition, % at 105 µM | purified enzyme, 4-MU-alpha-Gal fluorescence, pH 4.5; inconclusive = small, poorly fitted or top-dose-only inhibition, or a rising curve; inactive = flat fitted curve, though single readings scatter; no compound was filed as active;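 further: 0% = full activity with enzyme and -100% = basal without enzyme; dose as in the result columns while the protocol names 77 µM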
* = called active by the depositor. This is a subset. The share of hits here may be higher or lower than overall.

Results for Cc1nn(-c2cc(N(S(C)(=O)=O)S(C)(=O)=O)c(Cl)cc2Cl)c(=O)n1C ?
miR-21 reporter: -11%; Rango dissoc inh: 3%; Rango complex inh: -1.1%; GLA inh pH 4.5: 8

Results for O=C(Cc1c(F)cccc1Cl)Nc1cc(S(=O)(=O)N2CCOCC2)ccc1N1CCOCC1 ?
Rango dissoc inh: 10%; Rango complex inh: 0.7%

How did O=C(NCc1ccccc1Cl)C1CCCN(c2ncnc3c2nc2n3CCCCC2)C1 (configuration not stated) do in these assays?
miR-21 reporter: -1%; Rango dissoc inh: 20%; Rango complex inh: 0.8%

What do the screens show for `Cc1cc(C)n(/C(=C\N(C)C)C(=O)c2ccc(Cl)cc2)n1`?
miR-21 reporter: 4%; Rango dissoc inh: -15%; Rango complex inh: 0.6%; GLA inh pH 4.5: 4

Results for CCOC(=O)c1c(CNCCN(CC)CC)n(C)c2cc(Br)c(OC)cc12 ?
miR-21 reporter: -10%; Rango dissoc inh: -6%; Rango complex inh: 0.0%; GLA inh pH 4.5: 3

What do the screens show for `CC(/C=N/NC(=O)c1cc(-c2cccnc2)nc2c1c(C)nn2-c1ccccc1)=C\c1ccccc1`?
miR-21 reporter: 0%; Rango dissoc inh: -18%; Rango complex inh: inconclusive; GLA inh pH 4.5: -5

How did S=C1SCN(Cc2cccnc2)CN1Cc1cccnc1 do in these assays?
miR-21 reporter: inconclusive; Rango dissoc inh: 3%; Rango complex inh: -3.0%; GLA inh pH 4.5: -11

How did O=C(c1ccc2c(=O)n(Cc3ccc4c(c3)OCO4)c(=S)[nH]c2c1)N1CCCCC1 do in these assays?
miR-21 reporter: -1%; Rango dissoc inh: -4%; Rango complex inh: 0.0%; GLA inh pH 4.5: -3

What do the screens show for `CCc1nc(SCC(=O)N2CC(=O)Nc3ccccc32)c2c(C)c(C)sc2n1`?
miR-21 reporter: -11%; Rango dissoc inh: 8%; Rango complex inh: 3.3%; GLA inh pH 4.5: 5

How did O=C(N/C=C\c1ccccc1)NCc1ccc(Cl)cc1 do in these assays?
miR-21 reporter: 1%; Rango dissoc inh: -2%; Rango complex inh: -0.9%; GLA inh pH 4.5: 1

How did COCCn1c(SCC(=O)Nc2cc(C)cc(C)c2)nnc1C(C)C do in these assays?
miR-21 reporter: 0%; Rango dissoc inh: 2%; Rango complex inh: -2.2%; GLA inh pH 4.5: -1

What do the screens show for `O=C(c1ccc(S(=O)(=O)Cc2cc(F)ccc2F)c([N+](=O)[O-])c1)N1CCCCC1`?
miR-21 reporter: 1%; Rango dissoc inh: 0%; Rango complex inh: 0.4%; GLA inh pH 4.5: 4

How did CCOc1ccc(C(=O)NCC(=O)N2CCN(Cc3ccccc3)CC2)cc1 do in these assays?
Rango dissoc inh: -7%; Rango complex inh: -2.6%

What do the screens show for `CCOC(=O)c1cnc2c(-c3ccccc3)c(-c3ccccc3)nn2c1C`?
miR-21 reporter: 2%; Rango dissoc inh: -10%; Rango complex inh: -2.6%

Results for Fc1ccccc1NC(=S)N1CCN(Cc2ccccc2)CC1 ?
miR-21 reporter: -12%; Rango dissoc inh: 1%; Rango complex inh: -0.4%; GLA inh pH 4.5: 2

What do the screens show for `COc1ccc(NC(=O)CSc2nc3nc(C)cc(C)c3c(=O)[nH]2)cc1`?
miR-21 reporter: 6%; Rango dissoc inh: -4%; Rango complex inh: -4.3%

How did Cc1noc(NS(=O)(=O)c2ccc(NC(=O)CSc3nc4c(cc3C#N)CCC4)cc2)c1C do in these assays?
miR-21 reporter: -13%; Rango dissoc inh: 10%; Rango complex inh: -4.3%; GLA inh pH 4.5: 0

What do the screens show for `O=C(CO/N=C/c1ccc(OC(F)F)cc1)NC1CCCCC1`?
miR-21 reporter: -10%; Rango dissoc inh: -4%; Rango complex inh: -4.3%; GLA inh pH 4.5: 0

What do the screens show for `Cc1ccc(CS(=O)(=O)c2ccc(C(=O)N3CCCCC3)cc2[N+](=O)[O-])cc1`?
miR-21 reporter: 16%; Rango dissoc inh: -3%; Rango complex inh: 0.0%; GLA inh pH 4.5: -2

Results for COc1ccc(CN2C(=O)C(CC(C)C)Nc3ncnc(N4CCCCC4)c32)cc1 (configuration not stated) ?
Rango dissoc inh: -15%; Rango complex inh: -4.1%

What do the screens show for `O=C(CCC(=O)N(CC(=O)NC1CCCCC1)Cc1ccco1)Nc1nccs1`?
miR-21 reporter: 0%; Rango dissoc inh: -13%; Rango complex inh: -2.2%; GLA inh pH 4.5: 0

How did CCNC(=O)COc1ccc(Br)cc1Cl do in these assays?
miR-21 reporter: -51%; Rango dissoc inh: 5%; Rango complex inh: 1.4%; GLA inh pH 4.5: -9

Results for O=C(COc1ccccc1Br)NCCC1=CCCCC1 ?
Rango dissoc inh: 5%; Rango complex inh: 1.7%

What do the screens show for `COc1ccc(NC(=S)Nc2cccc3cnccc23)cc1`?
miR-21 reporter: -10%; Rango dissoc inh: 1%; Rango complex inh: -1.9%; GLA inh pH 4.5: 1

What do the screens show for `CC(=O)Nc1ccc(S(=O)(=O)Nc2nc3ccccc3nc2Nc2ccc(O)cc2)cc1`?
miR-21 reporter: -4%; Rango dissoc inh: inconclusive; Rango complex inh: 1.2%; GLA inh pH 4.5: -6

How did Cc1ccc(NC(=O)CC2CCCC2)c(Br)c1 do in these assays?
miR-21 reporter: -66%; Rango dissoc inh: 8%; Rango complex inh: 0.2%

What do the screens show for `Cc1ccc(-n2c(=S)sc3c(=O)n(-c4ccccc4C)c(SCC(=O)O)nc32)cc1C`?
miR-21 reporter: -4%; Rango dissoc inh: -5%; Rango complex inh: -0.8%

How did COc1ccc(CN2C(=O)CSC2c2ccncc2)cc1 (configuration not stated) do in these assays?
miR-21 reporter: 4%; Rango dissoc inh: -15%; Rango complex inh: -0.2%; GLA inh pH 4.5: -6

Results for CC(=O)c1ccc(NC(=S)Nc2cccc(S(=O)(=O)Nc3c(C)n(C)n(-c4ccccc4)c3=O)c2)cc1 ?
miR-21 reporter: -8%; Rango dissoc inh: -9%; Rango complex inh: 1.1%; GLA inh pH 4.5: 2

Results for COc1ccc(NC(=O)c2cc(-c3ccccc3)nc3c2cnn3C(C)C)cc1 ?
Rango dissoc inh: 0%; Rango complex inh: 0.9%

Of the compounds above, these contain a nitro group on carbon:
What do the screens show for `O=C(c1ccc(S(=O)(=O)Cc2cc(F)ccc2F)c([N+](=O)[O-])c1)N1CCCCC1`?
miR-21 reporter: 1%; Rango dissoc inh: 0%; Rango complex inh: 0.4%; GLA inh pH 4.5: 4

What do the screens show for `Cc1ccc(CS(=O)(=O)c2ccc(C(=O)N3CCCCC3)cc2[N+](=O)[O-])cc1`?
miR-21 reporter: 16%; Rango dissoc inh: -3%; Rango complex inh: 0.0%; GLA inh pH 4.5: -2

New compounds follow:
What do the screens show for `CC(Oc1ccccc1Cl)C(=O)Nc1ccc(S(=O)(=O)N2CCOCC2)cc1` (configuration not stated)?
Rango dissoc inh: -2%; Rango complex inh: -1.0%

What do the screens show for `CCOc1ccc(S(=O)(=O)NCc2ccccn2)cc1`?
miR-21 reporter: 7%; Rango dissoc inh: -5%; Rango complex inh: 0.1%; GLA inh pH 4.5: 8

What do the screens show for `CC(=O)N1CCc2cc(S(=O)(=O)CCC(=O)N3CCC(C)CC3)ccc21`?
miR-21 reporter: 0%; Rango dissoc inh: -11%; Rango complex inh: 2.6%

Results for O=C(NC(=S)Nc1nc(-c2ccc(Br)cc2)cs1)c1cccnc1 ?
miR-21 reporter: -9%; Rango dissoc inh: -11%; Rango complex inh: 3.1%; GLA inh pH 4.5: -3

What do the screens show for `CCNC(=O)N(CC)C[C@H]1N[C@@](CC)(C(=O)OC)[C@H]2C(=O)N(Cc3ccccc3)C(=O)[C@@H]12`?
Rango dissoc inh: -2%; Rango complex inh: 1.0%

How did COc1ccc(CSc2nnc(SCc3ccc([N+](=O)[O-])cc3)s2)cc1 do in these assays?
miR-21 reporter: -6%; Rango dissoc inh: -5%; Rango complex inh: -1.8%; GLA inh pH 4.5: 5

How did Cc1ccc(S(=O)(=O)N2CCN(S(=O)(=O)N3CCCCC3)CC2)cc1 do in these assays?
miR-21 reporter: 2%; Rango dissoc inh: -10%; Rango complex inh: -0.7%; GLA inh pH 4.5: 0

Results for CCCCN(C(=O)NC(=O)Nc1ccccc1OC)S(C)(=O)=O ?
miR-21 reporter: -11%; Rango dissoc inh: 5%; Rango complex inh: -4.1%; GLA inh pH 4.5: -7

Results for Cc1ccccc1NC(=O)c1ccc(COc2ccc3c(C)cc(=O)oc3c2)cc1 ?
miR-21 reporter: -14%; Rango dissoc inh: -2%; Rango complex inh: -4.8%; GLA inh pH 4.5: 6

What do the screens show for `C/C(=N\NC(=O)Cc1c(C)[nH][nH]c1=O)c1ccc(Cl)c(Cl)c1`?
miR-21 reporter: -8%; Rango dissoc inh: -5%; Rango complex inh: -0.4%; GLA inh pH 4.5: -2

What do the screens show for `CCN1CCN(C(=O)CN2C(=O)c3cccc4cccc2c34)CC1`?
miR-21 reporter: -12%; Rango dissoc inh: inconclusive; Rango complex inh: inconclusive; GLA inh pH 4.5: 6

How did COc1ccc(N2CCN(C(=O)CNC(=O)Cn3cnc4sc(C)c(C)c4c3=O)CC2)cc1 do in these assays?
miR-21 reporter: 1%; Rango dissoc inh: 11%; Rango complex inh: 11%

What do the screens show for `CCOC(=O)c1ccc(NC(=O)CN(c2ccc(C)cc2)S(=O)(=O)c2c(C)n[nH]c2C)cc1`?
miR-21 reporter: 5%; Rango dissoc inh: inconclusive; Rango complex inh: -1.3%; GLA inh pH 4.5: -2

Results for COCCN1C(=O)C(=O)/C(=C(/O)c2ccc(S(=O)(=O)N3CCOCC3)cc2)C1c1cccc(O)c1 (configuration not stated) ?
miR-21 reporter: -1%; Rango dissoc inh: 29%; Rango complex inh: 3.7%; GLA inh pH 4.5: -7

How did Cc1ccc(NS(=O)(=O)c2ccc(Cl)s2)cc1S(=O)(=O)N(C)C do in these assays?
miR-21 reporter: 2%; Rango dissoc inh: 0%; Rango complex inh: 1.0%; GLA inh pH 4.5: -2

What do the screens show for `CC/C(C)=C1\SC(N2CCOCC2)=NC1=O`?
miR-21 reporter: -11%; Rango dissoc inh: -3%; Rango complex inh: -2.5%; GLA inh pH 4.5: 2

Results for COc1ccccc1Nc1nc(N)nc(CN(C)C2CCCCC2)n1 ?
miR-21 reporter: -2%; Rango dissoc inh: -6%; Rango complex inh: 1.8%; GLA inh pH 4.5: -6

How did O=C(COc1ccc([N+](=O)[O-])cc1Cl)NCCN1C(=O)CSC1=O do in these assays?
Rango dissoc inh: -1%; Rango complex inh: 0.0%

What do the screens show for `CCn1cc(C(=O)NCCC(C)C)c(=O)c2cc(F)c(N3CCN(C(=O)c4ccco4)CC3)cc21`?
miR-21 reporter: 0%; Rango dissoc inh: 1%; Rango complex inh: 2.6%

What do the screens show for `CCn1ccnc1CN(C)Cc1nc(-c2ccc3c(c2)OCO3)no1`?
miR-21 reporter: -39%; Rango dissoc inh: -6%; Rango complex inh: 3.6%; GLA inh pH 4.5: -2

What do the screens show for `CC(NC(=S)NCCCN1CCOCC1)C12CC3CC(CC(C3)C1)C2` (configuration not stated)?
miR-21 reporter: -6%; Rango dissoc inh: 13%; Rango complex inh: 1.0%; GLA inh pH 4.5: 3

How did O=C(Nc1cccn(Cc2c(Cl)cccc2Cl)c1=O)c1ccc(Cl)cc1 do in these assays?
miR-21 reporter: -3%; Rango dissoc inh: -19%; Rango complex inh: 0.1%; GLA inh pH 4.5: 3

What do the screens show for `COc1ccc2c(C)cc(SCC(=O)Nc3ncc(Cl)cc3Cl)nc2c1`?
miR-21 reporter: -9%; Rango dissoc inh: 2%; Rango complex inh: -0.6%; GLA inh pH 4.5: 2

What do the screens show for `NC(=O)C1CCN(C(=O)/C=C/c2cc(Br)ccc2F)CC1`?
miR-21 reporter: -9%; Rango dissoc inh: -5%; Rango complex inh: 4.6%; GLA inh pH 4.5: 11

Results for CC(C)NC(=O)c1onc(CSc2ccccc2)c1C(=O)O ?
miR-21 reporter: -19%; Rango dissoc inh: 1%; Rango complex inh: -0.5%; GLA inh pH 4.5: 6

Source: PubChem
